Source: PubChem BioAssay (several laboratories)
HIV Env fusion – HIV envelope-mediated fusion inhibition | HeLa-JRFL Env/CEM21 cell fusion, luciferase | inhibition, % at 12.3 µM | hit rate 1.1% among 360,000 | AID 651610;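 active = mean replicate inhibition score of at least 50 and every replicate individually at or above 50; inconclusive = only one of the two criteria met; inactive = mean below 50 and not all replicates reaching 50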;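 also: 0% = plate neutral controls and 100% = maraviroc near 300 nM; one replicate is shown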
MT1-MMP act inh – MT1-MMP (human) activation inhibition; P50281; GFP/RFP ratio change, % at 20 µM; HT1080 RFP-PRO-GFP cells, GFP/RFP ratio fluorescence, overnight; percent of plate control window, DMSO zero; hit rate 0.061% among 360,000;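 active = GFP/RFP ratio change of at least 30% with cell ATP level not reduced by more than half and red fluorescence within 50% of control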; also: strong numbers were not always called active
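system = RFP-PRO-GFP reporter HT1080 cells | dosing = 20 µM single dose, 1% DMSO | timing = overnight cell settling, then overnight compound exposure, 37 °C, 5% CO2 | read-out basis = GFP/RFP fluorescence ratio | controls = DMSO and RFP-L50D-GFP cell wells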
CSC inhib – blocks cancer stem cells; cancer stem cell-like cells viability, luminescence; inhibition, % at 7.5 µM; hit rate 1.1% among 300,000; AID 2717;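 active = mean at 75% or more and at least half the replicates too; inconclusive = mean and replicates disagree; tested in HMLE shEcad cells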;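 also: 0% = median of negative and 100% = median of positive control wells; the first replicate is given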
Rce1 inhib – yeast Ras-converting enzyme inhibition | Q03530 | calls only | AID 2563 | yeast membranes, quenched prenylated peptide cleavage fluorescence | hit rate 0.27% among 290,000;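 active = fall in fluorescence gain of 50% or more versus controls, with final raw signal at or below 3038400; inconclusive = same 50% fall but final raw signal above 3038400; inactive = fall in fluorescence gain under 50%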;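 also: plate controls were neutral control wells for no effect and wells lacking membranes for full effect; tested at 10 µM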
eIF4H inh – inhibitors of RNA binding by human eIF4H. eIF4H fluorescence polarization binding assay. inhibition, % at 35 µM. hit rate 0.94% among 290,000;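 active = 50% or more with normal probe brightness, or confirmed in later tests; inconclusive = above 50% with abnormal brightness, or retests that disagree; inactive = below 50% or failed in later tests; about a fifth of its hits are not listed in these tables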;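 also: calls also rest on retests at 20 µM and on dose response follow-up; 0% = protein and probe with vehicle and 100% = probe without protein; strong numbers were not always called active; many hits fall short of the cut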
UUG fidelity – alters start codon recognition fidelity in yeast; S. cerevisiae UUG-firefly luciferase reporter, luminescence/redox ratio; activity score, % at 18.7 µM; hit rate 0.13% among 350,000;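 active = replicate mean at a twofold rise or more, about +100% in these data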;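 also: firefly luciferase made from a UUG start codon reports start codon fidelity; reporter light over untreated wells divided by growth signal over untreated wells; some hits fall short of that in this replicate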
PABP polyA inh – PABP-poly(A) binding inhibition; P11940; PABP-poly(A) RNA binding, fluorescence polarization; inhibition, % at 35 µM; hit rate 1% among 290,000;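 active = 50% or more with normal probe brightness, or confirmed in later tests; inconclusive = above 50% with abnormal brightness, or retests that disagree; inactive = below 50% or failed in later tests; about a fifth of its hits are not listed in these tables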;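 also: calls also rest on retests at 20 µM and on dose response follow-up; controls were probe without protein and protein plus probe with vehicle; some compounds called inactive have numbers as strong as hits; many hits fall short of the cut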
Target sequence (P11940 whole entry, looked up): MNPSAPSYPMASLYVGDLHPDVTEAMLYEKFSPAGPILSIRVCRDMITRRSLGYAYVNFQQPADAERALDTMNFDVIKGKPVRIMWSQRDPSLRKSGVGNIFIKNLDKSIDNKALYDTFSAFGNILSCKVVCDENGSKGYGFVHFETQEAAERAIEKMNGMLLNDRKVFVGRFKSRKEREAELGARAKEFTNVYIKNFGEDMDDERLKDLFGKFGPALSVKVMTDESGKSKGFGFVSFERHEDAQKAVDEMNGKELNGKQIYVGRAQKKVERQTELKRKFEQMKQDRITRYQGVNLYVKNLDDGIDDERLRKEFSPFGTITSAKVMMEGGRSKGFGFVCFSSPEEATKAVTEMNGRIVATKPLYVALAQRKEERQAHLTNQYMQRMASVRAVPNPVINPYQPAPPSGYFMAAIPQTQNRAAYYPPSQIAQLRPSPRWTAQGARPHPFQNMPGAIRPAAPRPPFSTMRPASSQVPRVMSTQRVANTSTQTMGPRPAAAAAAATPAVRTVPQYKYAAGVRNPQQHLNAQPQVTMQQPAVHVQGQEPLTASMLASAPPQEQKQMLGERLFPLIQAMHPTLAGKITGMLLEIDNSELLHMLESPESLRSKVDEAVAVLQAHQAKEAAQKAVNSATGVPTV
MT1-MMP act inh RFP – recorded beside MT1-MMP act inh, whose call it bears; RFP signal change, %; measured here: RFP expression control read;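 0 = vehicle wells; hits needed this value within 50% of zero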
* marks the source's active call; other numbers are inactive results; i = inactive; u = inconclusive; x = no result given. The list is partial; rates above refer to the full screens.

SMILES	HIV Env fusion	MT1-MMP act inh	MT1-MMP act inh RFP	CSC inhib	Rce1 inhib	eIF4H inh	UUG fidelity	PABP polyA inh
Cc1ccc(S(=O)(=O)NC2=NCN(CCc3ccccc3)CN2)cc1	-30	8	4	-6	i	4	-19	0
O=C(Cc1ccccc1)N1CCN(S(=O)(=O)c2cccc([N+](=O)[O-])c2)CC1	7	2	2	-3	i	-16	x	-3
O=c1c2ccccc2nc2n1C(CBr)CS2 (stereo not given)	8	-3	0	-4	i	-7	x	6
Cc1ccc(S(=O)(=O)Nc2ccccc2C(=O)OC(C)C(=O)Nc2ccc3ccccc3c2)cc1[N+](=O)[O-] (stereo not given)	23	0	-16	-11	i	2	x	2
CCc1ccc(NC(=O)CC2S/C(=N/N=C3CCCCCC3)NC2=O)cc1 (stereo not given)	-52	5	1	x	i	3	-1	6
O=C1CC(c2ccc(S(=O)(=O)NCc3ccncc3)cc2)CN1 (stereo not given)	-5	0	-6	-11	i	-1	-17	6
CC(C)N(c1ccccc1)c1ccc(NC(=O)[C@@H]2O[C@H](CO)[C@H](O)[C@H](O)[C@H]2O)cc1	9	-2	3	x	x	x	-1	x
CC(Cc1ccccc1)Nc1ncnc2c1ncn2C1OC(CO)C(O)C1O (stereo not given)	13	0	5	-1	i	x	6	x
O=C(NCC(c1cccnc1)N1CCN(c2ccccc2F)CC1)C1CCCCC1 (stereo not given)	x	8	1	26	i	-3	0	-1
Cn1cc(Cc2ccc(C(=O)N3CCN(Cc4ccccc4)CC3)cn2)c2ccccc21	18	-2	-8	x	x	x	-9	x
O=C(NNc1cc(N2CCOCC2)nc(N2CCOCC2)n1)c1ccc([N+](=O)[O-])cc1	-96	5	7	x	i	14	2	10
COc1ccc(-c2cc(C(=O)Nc3c(C)n(C)n(-c4ccccc4)c3=O)no2)cc1OC	15	0	-4	-10	i	5	x	7
O=C(NCCS(=O)CCNC(=O)C(F)(F)F)C(F)(F)F	x	1	5	-6	i	-5	-15	0
O=C(Cc1ccccc1)NCC(=O)N/N=C/c1cccnc1	-5	-1	0	-12	i	4	x	-3
Cc1ccccc1N1CCN(Cc2ccc(Br)o2)CC1	7	-4	-1	5	i	12	-6	8
O=C(c1ccc(-c2ccccc2)cc1)c1ccc([N+](=O)[O-])cc1	x	x	x	-3	i	5	x	12
Nc1ccccc1C(=O)NCC1(c2ccccc2)CCCC1	13	5	1	7	i	-10	-11	-22
c1ccc(-c2nnsc2-c2nc3ccccc3[nH]2)cc1	5	-4	-5	x	x	-4	x	-3
COc1ccc([N+](=O)[O-])cc1NC(=O)C(C)N1CCCC1 (stereo not given)	16	0	-2	-9	i	0	-12	-9
Cc1noc(C)c1S(=O)(=O)N1CCN(S(=O)(=O)c2ccccc2C#N)CC1	-2	-2	-1	-4	i	0	-16	0
CCN(CC(=O)NC1CCCC1)S(=O)(=O)c1ccc(Br)cc1	-5	-3	-4	0	i	-6	19	4
CCCCCc1nnc(NC(=O)c2ccc(N3CCCC3=O)cc2)s1	-1	-1	-9	-8	i	x	x	x
Cc1ccc(S(=O)(=O)Nc2cccc(C(=O)N3CCOCC3)c2)cc1	5	-1	-1	-7	i	-13	-5	3
COc1ccc(C/C(C)=N/NC(=S)Nc2ccc(Cl)cc2)cc1	4	3	-1	-3	i	0	-30	-3
O=C(CSc1nnnn1C1CCCC1)NCc1cccs1	4	-1	1	7	i	-12	x	-5
Cc1ccc(NC(=O)CN(C)S(=O)(=O)c2ccc3c(c2)n(C)c(=O)c(=O)n3C)c(C)c1	-2	-2	4	-8	i	-5	-17	8
CC(=O)Nc1ccc(S(=O)(=O)N2CCC(C(=O)N[C@@H](Cc3ccccc3)C(=O)O)CC2)cc1	6	-7	-2	-4	i	4	-18	4
O=C(/C=C/c1c[nH]c2ccccc12)c1cccc2ccccc12	-5	-17	-11	87*	i	19	1	11
CCC(C)(C)NC(=O)CN(Cc1cccs1)C(=O)C(=O)Nc1ccc2c(c1)OCCO2	x	-1	-1	-17	i	-2	12	-3
C=CCNCCOc1c(C)cc(C)cc1Cl	-19	2	2	-2	i	10	-8	-7
Cc1ccc(N2C(=O)CC(C3CCCO3)C2=O)cc1 (stereo not given)	x	0	2	-2	i	-2	-22	8
CC(OC(=O)c1ccc(-c2ccc(O)cc2)cc1)C(=O)NC1CCCCC1C (stereo not given)	-7	2	-9	-1	x	x	0	x
CCN(C(=O)CN1CCN(Cc2ccccc2)CC1)c1c(N)n(Cc2ccccc2)c(=O)[nH]c1=O	12	-3	-1	-3	i	5	x	-14
CCCOC1CCCN(C(=O)CCc2nnc(CCCCc3ccccc3)o2)C1 (stereo not given)	6	-1	-7	9	i	-7	x	0
Cc1cccc(C)c1C(OCCN(C)C)C1CCCCC1 (stereo not given)	-2	-24	-6	-10	i	6	-3	-9
Cc1ccc(S(=O)(=O)C2C(=O)N(C)C3(C)CC2c2ccccc2O3)cc1 (stereo not given)	-26	-5	1	x	i	u	x	-14
CCCC(=O)Nc1ccc2c(c1)C(=O)NC2=O	28	-1	3	2	i	-10	-21	-9
Cc1ccc(S(=O)(=O)N2CCCCC2)cc1NC(=O)CCOc1ccccc1	x	9	-6	x	i	5	x	9
CC1CCC(NC(=O)c2nc(Cn3ccc([N+](=O)[O-])n3)no2)CC1 (stereo not given)	-9	2	-3	-10	x	-8	-8	4
Cc1ccc(C(=O)c2cc([N+](=O)[O-])ccc2N2CCCCC2)cc1C	x	1	-15	-19	i	-13	x	10
CC1CCCN(CCOc2ccc3ccccc3c2Br)C1 (stereo not given)	0	-4	-5	44	i	3	x	-8
Cc1ccccc1N=C1SC(CC(=O)Nc2ccc3ccccc3c2)C(=O)N1Cc1ccccn1 (stereo not given)	-4	-25	-22	78*	i	-1	x	-7
O=C(NCC(c1ccc(F)cc1)N1CCOCC1)c1ccc([N+](=O)[O-])o1 (stereo not given)	-13	4	1	44	x	x	4	x
CCCc1cc(C(=O)NNC(=S)NCc2ccccc2)cs1	9	0	0	2	i	8	-22	-4
CCOc1ccc(S(=O)(=O)N2CCC(C(=O)NCCN3CCOCC3)CC2)cc1C	19	4	2	-5	i	-3	-6	4
O=C(CN(c1ccc(Br)cc1)S(=O)(=O)c1ccc(Cl)c([N+](=O)[O-])c1)NCCc1ccccc1	-6	7	-3	23	i	-10	-9	-7
O=[N+]([O-])c1ccc(SCc2ccco2)cc1N1CCOCC1	5	0	1	-6	i	-3	-15	11
Cc1cc(C)cc(C(=O)NC(CC(N)=O)c2ccc(N3CCCCCC3)c([N+](=O)[O-])c2)c1 (stereo not given)	x	3	6	8	i	1	-6	-8
Cc1c(N2C(=O)C3C4C=CC(C5CC45)C3C2=O)c(=O)n(-c2ccccc2)n1C (stereo not given)	-22	2	3	11	i	2	-8	-3
COc1cc(OC)cc(C(=O)Nn2cc(C(=O)N3CCN(C)CC3)c3ccccc3c2=O)c1	-78	0	7	-11	i	-9	-12	-10
Cc1c(Cl)cccc1N(CC(=O)O)S(C)(=O)=O	u	5	5	-19	i	-2	-8	20
O=C1CCCN1c1nccs1	5	-1	2	x	i	-10	x	0
Cc1cc(C(=O)NCc2cccs2)n(-c2ccccc2)n1	-68	3	-1	x	i	-1	13	2
CC1(C)Cc2nc3oc4c(SCC(N)=O)ncnc4c3cc2CO1	-13	3	6	1	i	19	-21	10
CN(C)CCCNCCCNC(=O)/C(=N\O)c1ccccc1	-10	1	-3	-8	i	1	-16	10
CC(=O)Nc1cccc(NC(=O)CSc2nc3c(c(=O)n(C)c(=O)n3C)n2C)c1	0	0	3	5	i	-3	4	5
O=C(NNC(=S)Nc1ccc(F)c(Cl)c1)C1CC1	-9	2	3	-6	i	3	x	-3
CC(C)(C)c1nnc2sc(SCC(=O)c3cccs3)nn2c1=O	x	0	2	45	i	-2	-19	7
CN(CC(=O)Nc1c(Cl)cccc1Cl)C(=O)C1CCN(C(=O)Nc2ccccc2)CC1	4	1	5	x	i	x	14	x
CCN(CC)CCCCCC(=O)Nc1ccccc1C(=O)Nc1ccccc1	14	-2	-1	-9	i	6	-9	17

Five entries from above, as a markdown table.
| SMILES | HIV Env fusion | MT1-MMP act inh | MT1-MMP act inh RFP | CSC inhib | Rce1 inhib | eIF4H inh | UUG fidelity | PABP polyA inh |
| --- | --- | --- | --- | --- | --- | --- | --- | --- |
| CCCc1cc(C(=O)NNC(=S)NCc2ccccc2)cs1 | 9 | 0 | 0 | 2 | i | 8 | -22 | -4 |
| Cc1cc(C(=O)NCc2cccs2)n(-c2ccccc2)n1 | -68 | 3 | -1 | x | i | -1 | 13 | 2 |
| CC(C)(C)c1nnc2sc(SCC(=O)c3cccs3)nn2c1=O | x | 0 | 2 | 45 | i | -2 | -19 | 7 |
| Cc1c(Cl)cccc1N(CC(=O)O)S(C)(=O)=O | u | 5 | 5 | -19 | i | -2 | -8 | 20 |
| CC1(C)Cc2nc3oc4c(SCC(N)=O)ncnc4c3cc2CO1 | -13 | 3 | 6 | 1 | i | 19 | -21 | 10 |

(continued)
SMILES	HIV Env fusion	MT1-MMP act inh	MT1-MMP act inh RFP	CSC inhib	Rce1 inhib	eIF4H inh	UUG fidelity	PABP polyA inh
CCOc1ccc(C(C(=O)NCC2CCCO2)N(Cc2cccc(OC)c2)C(=O)c2snc(C(N)=O)c2N)cc1 (stereo not given)	-11	-4	-2	-1	i	2	9	8
FC(F)(F)c1cc(-c2cccs2)nc2cc(-c3cccs3)nn12	-4	0	2	-10	i	-12	-12	3
COc1ccc(-c2cnnc(N/N=C/c3c(C)nn(-c4ccccc4)c3Cl)n2)cc1	i	5	0	42	i	-1	-7	-1
COc1ccc(C2=NOC(C(=O)N3CCN(c4ccccc4OC)CC3)C2)cc1 (stereo not given)	17	1	0	-2	i	-5	-11	1
Cc1ccc(S(=O)(=O)N2CCC(C(=O)OCC(=O)N3CC(=O)Nc4ccccc43)CC2)cc1	0	2	5	11	x	-2	-11	-5
O=C(C[C@@H]1C/C=C\CC[C@@H](Cc2ccc(F)cc2)C(=O)OC[C@@H](Cc2ccccc2)NC1=O)NCCO	-9	-2	-4	2	x	x	5	x
Cc1nc2nc(C)c(CCC(=O)N3CCN(c4ccccn4)CC3)c(C)n2n1	-5	12	1	4	i	12	-11	15
CCC(CC)C(=O)N1c2ccc(F)cc2CCC1C (stereo not given)	16	-7	1	-11	i	8	-27	-4
O=C(Nc1nc2ccccc2s1)c1cc(-c2ccco2)nc2ccccc12	22	-6	-4	x	i	-4	x	-11
O=C(Nc1ccccc1C(=O)N1CCCC1)C1COc2ccccc2O1 (stereo not given)	0	1	1	-7	i	-3	x	-7
Cc1cc(-c2nnc(SCC(=O)Nc3ccc(C)c(C)c3)n2N)n[nH]1	0	1	1	-7	i	0	-22	0
COc1ccc(OCCCC(=O)NC(C)c2ccccc2)cc1 (stereo not given)	x	1	-4	5	i	1	-2	-4
O=C(C[C@@H]1C/C=C\CC[C@H](Cc2ccc(F)cc2)C(=O)OC[C@@H](Cc2ccccc2)NC1=O)NCCO	-69	-2	1	-7	x	x	1	x
COc1ccc(CN2C(=O)C(CC(=O)NCCN3CCOCC3)CC(C(=O)N(C)C)=C2C)cc1 (stereo not given)	-31	0	0	x	x	x	-3	x
CC(C)(O)/C=C1/Oc2ccccc2C1N1CCCCC1 (stereo not given)	x	2	-2	-5	i	0	-6	-6
CCn1c(=O)c(=O)[nH]c2c(=O)oc3ccc(S(=O)(=O)Nc4ccccc4)cc3c21	1	10	2	-7	i	0	x	10
COCCCn1c(SCC(=O)O)nc2cc(OC)c(OC)cc2c1=N	-9	5	3	-7	i	-8	x	-5
CC(=O)Nc1sc2c(c1C#N)CCN(Cc1ccccc1)C2	-57	-1	8	1	i	0	-1	2
